VDR inhibitor: blocks the human vitamin D receptor; hit rate 0.93% among 400,000; VDR-SRC2-3 peptide fluorescence polarization, 2 h; Potency, µM, inactives show max response, negative = inhibition, actives largely listed as inhibitors; active = well fitted inhibition curve with a large enough effect; inconclusive = small, poorly fitted or top-dose-only effect, or another doubt; inactive = no such curve, though single readings can be large or run the other way; note: series mostly up to about 120 µM
Target sequence (P11473 whole entry, looked up): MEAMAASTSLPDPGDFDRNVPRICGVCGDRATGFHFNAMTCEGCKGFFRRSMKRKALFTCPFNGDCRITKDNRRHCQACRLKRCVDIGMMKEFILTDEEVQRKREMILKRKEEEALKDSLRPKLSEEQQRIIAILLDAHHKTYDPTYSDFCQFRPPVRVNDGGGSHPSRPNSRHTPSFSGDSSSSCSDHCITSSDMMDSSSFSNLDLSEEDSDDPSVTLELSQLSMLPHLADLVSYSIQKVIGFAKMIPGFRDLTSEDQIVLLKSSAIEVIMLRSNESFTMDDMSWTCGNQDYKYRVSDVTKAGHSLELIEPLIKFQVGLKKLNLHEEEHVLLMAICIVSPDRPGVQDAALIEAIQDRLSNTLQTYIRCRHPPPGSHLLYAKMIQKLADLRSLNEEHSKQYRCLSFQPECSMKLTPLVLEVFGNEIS
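After 23 nl compound addition and a short centrifugation, plates sat for 2 hours at ambient temperature; polarization of fluorescence then indicated loss of VDR binding to peptide SRC2-3.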
* hit, by the source's call; ? = inconclusive; & = joins results of further samples. % is set by controls: 0 for no effect and ±100 for the full control effect; potency is the fitted concentration of half-maximal effect.

The first 2 records, ahead of the listing:
SMILES | VDR inhibitor
O=C(COC(=O)CNC(=O)c1ccc(Cl)cc1Cl)NNC(=O)c1ccccc1 | 16.2%
CCOC(=O)c1c(NC(=O)CN2CCOCC2)sc2c1CCCC2 | -8.0%

All compounds of this part, repeating the preview:
SMILES | VDR inhibitor
O=C(COC(=O)CNC(=O)c1ccc(Cl)cc1Cl)NNC(=O)c1ccccc1 | 16.2%
CCOC(=O)c1c(NC(=O)CN2CCOCC2)sc2c1CCCC2 | -8.0%
C/C(=C\c1ccccc1)C1NC(=O)c2c(sc3c2CCCC3)N1 (centres undefined) | -13.1%
Cc1ccccc1NC(=O)c1c(NC(=O)C(F)(F)F)sc2c1CCCCC2 | ?
Cc1c(O)c(=O)ccn1Cc1ccccc1 | 4.5%
O=C(Cn1nc(-c2cccc(Cl)c2)ccc1=O)NCC1COCCO1 (centres undefined) | 13.1%
Cc1cc(N2CCOCC2)ccc1/C=C1\NC(=O)N(Cc2ccccc2)C1=O | -8.2%
O=C(NCC(=O)N(Cc1ccc(F)cc1)C(C(=O)NCC1CCCO1)c1ccccc1)c1ccco1 (centres undefined) | 15.7%
O=S(=O)(CCSc1ccc(C(F)(F)F)cn1)c1ccccc1 | -12.9%
COc1cccc(NC(=S)NC(=O)Cc2ccccc2)c1 | -5.8%
O=C(CSc1ccccn1)Nc1ccc2c(c1)OCCO2 | 3.9%
O=C(CSc1ccc(Cl)cc1)NC(=O)NCc1ccco1 | ?
O=C(O)/C=C/c1cnc[nH]1 | -0.9%&-19.8%
Cc1cc(=O)oc2cc(OCC(=O)NC3CCCCC3)ccc12 | -7.7%
Cc1cccnc1Nc1nc(-c2ccc(O)cc2O)cs1 | -8.5%
Cc1ccc(C(=O)c2sc3nsc(C)c3c2N)cc1 | -6.2%
Cc1ccsc1/C=N/NC(=O)c1nnn(-c2nonc2N)c1-c1ccc2c(c1)OCO2 | -7.1%
COc1ccccc1NC(=O)CN1CCN(CC(=O)Nc2ccc(F)c(F)c2)CC1 | 2.7%
CCOc1ccc(NC(=O)c2oc3ccccc3c2NC(=O)Cc2ccc(OC)c(OC)c2)cc1 | -5.8%
Cc1cc(NC(=O)CSCC(=O)Nc2cccc(S(=O)(=O)N3CCCCCC3)c2)no1 | -4.2%
Cc1ccccc1OCC(=O)N/N=C/c1sc(=O)n(Cc2cccc(C(=O)O)c2)c1Cl | 0.1%
CN(C)c1ccc(-c2c(-c3ccc4c(c3)OCO4)noc2-c2ccsc2)cn1 | -14.2%
O=C(CSc1nnc(-c2ccncc2)n1Cc1ccco1)Nc1nccs1 | 6.0%
CSc1ccccc1NC(=O)c1cnccn1 | 5.6%
Cc1ccc(C(=O)NCCSc2c(C)[nH]c3ccccc23)cc1[N+](=O)[O-] | -13.6%
COC(=O)c1sc2nc(SCC(=O)N(C)c3ccccc3)n(N)c(=O)c2c1C | 8.3%
Cn1cc(C=C2C(=O)Nc3cccnc32)c2ccccc21 | 2.8%&-3.4%
CCn1ncc(Br)c1C(=O)Nc1cc(C(=O)OC)ccc1C(=O)OC | -7.6%
CCc1cccc(NC(=O)CN2Cc3ccccc3C2=O)c1 | 8.4%
COc1ccc(NC(=O)Cn2cc(S(=O)(=O)c3ccccc3)c(=O)c3cc(C)ccc32)cc1Cl | -7.6%
CC(=O)CSc1nnc2cc(C)c3cc(C)cc(C)c3n12 | 12.0%
Nn1c(Nc2ccccc2)nc2sc3c(c2c1=O)CCC3 | 13.6%
CN(C)S(=O)(=O)c1cccc(C(=O)Nc2ccc(S(=O)(=O)N3CCCC3)cc2)c1 | -18.0%
CCOc1ccc(NC(=O)/C(C#N)=C/c2cn(CC(=O)O)c3ccccc23)cc1 | -15.2%
COc1ccccc1N(C(=O)CNC(=O)c1ccco1)C(C(=O)NC1CCCC1)c1ccco1 (centres undefined) | 14.3%
CC(=O)c1ccc(S(=O)(=O)Nc2cccc(-c3ccc(N4CCCCC4)nn3)c2)cc1 | -2.4%
Cc1ccc(S(=O)(=O)O/N=C2/CCCc3occc32)cc1 | 13.0%
CCCCCCCCc1nc(=S)[nH][nH]1 | -1.9%
CCOCCCNC(=O)C(c1ccc(OC)cc1)N(Cc1cccs1)C(=O)c1ccccn1 (centres undefined) | -5.8%
COc1ccc(N2CCN(C(=O)c3cc4cc5ccc(Cl)cc5nc4o3)CC2)cc1 | -16.7%
O=S(=O)(c1ccc2c(c1)OCCO2)N1CCN(Cc2ccc3c(c2)OCO3)CC1 | 2.7%
O=C(O)C1CCCCC1C(=O)NCCCN1CCOCC1 (centres undefined) | 0.3%
COC(=O)CNc1nc(-c2ccccc2F)nc2ccccc12 | 4.3%
CCNc1ccc(Br)cc(C(=O)/C=C/c2c(Cl)cccc2Cl)c1=O | ?
O=[N+]([O-])c1ccc2nc(-[n+]3c(-c4ccccc4)cc(-c4ccccc4)cc3-c3ccccc3)[nH]c2c1 | 4.4%
Cc1cccc(N(C(=O)c2ccco2)C(C(=O)NC2CCCC2)c2ccco2)c1C (centres undefined) | -3.1%
Cc1onc(-c2c(Cl)cccc2Cl)c1C(=O)ONC(=O)c1cc(C(F)(F)F)cc(C(F)(F)F)c1 | 13.1%
Brc1ccc(/C=N/Nc2ncnc3c2cnn3Cc2ccccc2)cc1 | 6.5%
CN(C)CCSc1nnc(-c2ccccc2)o1 | -12.6%
Cc1cc(S(=O)(=O)Nc2ccc(-c3ccc(N4CCCCC4)nn3)cc2)c(C)cc1Cl | 6.6%
CSc1nc(O)c(/C=C2\C=Nc3ccccc32)[nH]1 | 6.1%
COc1ccc(OC)c(-n2c(SCC(N)=O)nnc2-c2c[nH]c3ccccc23)c1 | -12.7%
Cn1nnnc1SCC1=C(C(=O)O)N2C(=O)C(NC(=O)C(OC=O)c3ccccc3)C2SC1 (centres undefined) | ?
Cc1nc2ccc(S(=O)(=O)N(CC(=O)Nc3ccc(F)cc3)Cc3ccccc3)cc2s1 | 3.2%
C[C@H](NC(=O)c1ccco1)C(=O)Nc1ccc(C#N)cc1 | 6.5%
Cc1ccc(NC(=O)NCc2ccccn2)cc1 | -5.2%
COCc1cc(CN2CCN(CCc3ccccc3)C(CCO)C2)ccc1OC (centres undefined) | -9.9%
O=C(O)CC(CC(=O)Nc1ccccc1C(=O)O)c1ccccc1 (centres undefined) | 21.6%
O=C(NCCc1ccccc1F)C1CCCN1S(=O)(=O)c1ccc2ccccc2c1 (centres undefined) | 8.2%
CCc1ccccc1NC(=O)c1cc(S(=O)(=O)N(C)C)ccc1N1CCCC1 | -7.1%

Individual results from the entries so far:
CCn1ncc(Br)c1C(=O)Nc1cc(C(=O)OC)ccc1C(=O)OC in VDR inhibitor → -7.6%
CN(C)CCSc1nnc(-c2ccccc2)o1 in VDR inhibitor → -12.6%
Cc1ccc(S(=O)(=O)O/N=C2/CCCc3occc32)cc1 in VDR inhibitor → 13.0%

(listing goes on)
SMILES | VDR inhibitor
COC(=O)C1=C(C)Nc2nnnn2C1c1cccnc1 (centres undefined) | 19.7%
CCS(=O)(=O)N1CCN(c2ccc(C(=O)NC3C4CC5CC(C4)CC3C5)cc2[N+](=O)[O-])CC1 (centres undefined) | -23.7%
O=C(O)/C=C/C(=O)NC1CCCCC1 | -7.8%
COc1cc(C(=O)Nc2ccc(NC(=O)c3ccccc3)nc2)cc(OC)c1OC | -6.3%
COc1cc(C/C=C\c2ccccc2)c(OC)cc1O | 44.7µM*
COC(=O)c1ccsc1NC(=O)c1ccccc1 | -10.2%
Cc1cc(N2CCOCC2)n2ncc(-c3ccc(Cl)cc3)c2n1 | 10.5%
Cc1cc(C)cc(SCc2noc(C(=O)NCCCN3CCOCC3)c2C(=O)NCCCN2CCOCC2)c1 | 3.5%
COc1cccc(-c2cn3ncsc3n2)c1 | 1.8%
O=C(CCCn1c(=O)[nH]c2cc(Cl)ccc2c1=O)NCCCN1CCN(c2ccc(F)cc2)CC1 | -9.2%
COc1ccc2oc(=O)c(C(=O)N3CCCc4ccccc43)cc2c1 | 6.3%
O=C(NCCCn1ccnc1)C(Cc1ccccc1)N1C(=O)c2ccccc2C1=O (centres undefined) | -1.1%
O=C(NCc1cccnc1)C(=O)NCC(c1cccnc1)N1CCN(c2ccccc2F)CC1 (centres undefined) | 6.3%
CCOC(=O)c1ccccc1N/C=C/C(=O)c1ccccc1 | 13.3%
CCCN(CCC)C(=O)Cn1c(=O)c2ccccc2n2c(=S)sc(-c3ccccc3C)c12 | -3.3%
COC(=O)C(CCCCN1C(=O)C2C3C=CC(C3)C2C1=O)N1C(=O)C2C3C=CC(C3)C2C1=O (centres undefined) | 3.6%
Cc1cc(=O)oc2c(C)c(OCC(=O)Nc3cccnc3)ccc12 | -2.6%
O=C(COC(=O)c1ccc(Br)o1)NCCNC(=O)COC(=O)c1ccc(Br)o1 | -13.4%
CC1=NN(c2ccccc2)C(=O)/C1=C/c1c(O)n(-c2ccc(F)c(Cl)c2)[nH]c1=O | -18.8%
CN1c2ccc(Cl)cc2C(=O)NC1c1ccc([N+](=O)[O-])s1 (centres undefined) | -2.6%
O=C(Nc1ccc(-c2nc3cc(Cl)ccc3o2)cc1)c1cc2ccccc2o1 | 14.2%
Cc1cnc(CNc2ncncc2-c2ccc(C(=O)N(C)C)cc2)cn1 | 0.4%
N#Cc1nc(Cc2cccc3ccccc23)oc1N1CCOCC1 | 3.1%
CN(C(=O)c1ccc(-c2nn(C)c(=O)c3ccccc23)cc1)c1ccccc1 | 1.9%
O=C(NC(Cc1c[nH]c2ccccc12)c1nnc2n1CCCCC2)c1ccc(Cl)cc1 (centres undefined) | 7.4%
CCCCNC(=O)COc1ccccc1[N+](=O)[O-] | -15.7%
CC(=O)c1cccc(NC(=S)NC(=O)c2ccccc2Br)c1 | -4.9%
COC(=O)C(C)(C)ONC(=O)Nc1ccccc1Br | -1.7%
COc1ccc(NC(=O)CSc2nnc(C)c3ccccc23)cc1 | -24.8%
CCOc1ccc(NC(=O)C(C)Oc2ccccc2C(=O)Nc2ccc(C)c(Cl)c2)cc1 (centres undefined) | -0.5%
O=C(CSc1nnc(-c2ccc(OC(F)F)cc2)o1)N1CCOCC1 | 7.6%
C/C(=N\N1CCN(c2ccccc2)CC1)c1cccs1 | -5.6%
Cc1cc(C(=O)CSc2nnc(-c3ccncc3)n2-c2ccccc2)c(C)n1C | 8.2%
CCc1ccc2oc(C(=O)N(Cc3cccc(Cl)c3)Cc3ccco3)c(C)c2c1 | 0.1%
CCCCNS(=O)(=O)c1ccc2nc(SCC(=O)Nc3cc(C)cc(C)c3)[nH]c2c1 | -5.5%
CCOc1ccc(-c2cc3nc(C4CCN(C(=O)OC(C)(C)C)CC4)c(C(=O)O)cn3n2)cc1 | 12.5%

A draw from above in order of heavy-atom count, ascending:
SMILES | VDR inhibitor
O=C(O)/C=C/c1cnc[nH]1 | -0.9%&-19.8%
O=C(O)/C=C/C(=O)NC1CCCCC1 | -7.8%
COc1cccc(-c2cn3ncsc3n2)c1 | 1.8%
CN(C)CCSc1nnc(-c2ccccc2)o1 | -12.6%
Cc1ccc(NC(=O)NCc2ccccn2)cc1 | -5.2%
COC(=O)C(C)(C)ONC(=O)Nc1ccccc1Br | -1.7%
C/C(=N\N1CCN(c2ccccc2)CC1)c1cccs1 | -5.6%
Nn1c(Nc2ccccc2)nc2sc3c(c2c1=O)CCC3 | 13.6%
CCOC(=O)c1ccccc1N/C=C/C(=O)c1ccccc1 | 13.3%
Cc1cc(=O)oc2cc(OCC(=O)NC3CCCCC3)ccc12 | -7.7%
CCOC(=O)c1c(NC(=O)CN2CCOCC2)sc2c1CCCC2 | -8.0%
CCn1ncc(Br)c1C(=O)Nc1cc(C(=O)OC)ccc1C(=O)OC | -7.6%
Cc1ccc(C(=O)NCCSc2c(C)[nH]c3ccccc23)cc1[N+](=O)[O-] | -13.6%
Cc1ccccc1NC(=O)c1c(NC(=O)C(F)(F)F)sc2c1CCCCC2 | ?
CN(C(=O)c1ccc(-c2nn(C)c(=O)c3ccccc23)cc1)c1ccccc1 | 1.9%
Cc1cc(C(=O)CSc2nnc(-c3ccncc3)n2-c2ccccc2)c(C)n1C | 8.2%
COc1ccccc1NC(=O)CN1CCN(CC(=O)Nc2ccc(F)c(F)c2)CC1 | 2.7%
Cc1cc(S(=O)(=O)Nc2ccc(-c3ccc(N4CCCCC4)nn3)cc2)c(C)cc1Cl | 6.6%
Cc1nc2ccc(S(=O)(=O)N(CC(=O)Nc3ccc(F)cc3)Cc3ccccc3)cc2s1 | 3.2%
Cn1nnnc1SCC1=C(C(=O)O)N2C(=O)C(NC(=O)C(OC=O)c3ccccc3)C2SC1 (centres undefined) | ?
O=C(NCc1cccnc1)C(=O)NCC(c1cccnc1)N1CCN(c2ccccc2F)CC1 (centres undefined) | 6.3%
O=C(CCCn1c(=O)[nH]c2cc(Cl)ccc2c1=O)NCCCN1CCN(c2ccc(F)cc2)CC1 | -9.2%
O=C(NCC(=O)N(Cc1ccc(F)cc1)C(C(=O)NCC1CCCO1)c1ccccc1)c1ccco1 (centres undefined) | 15.7%
Cc1cc(C)cc(SCc2noc(C(=O)NCCCN3CCOCC3)c2C(=O)NCCCN2CCOCC2)c1 | 3.5%

Other structures follow:
SMILES | VDR inhibitor
COc1cc(SC)ccc1C(=O)Nc1ccc(OCC(=O)N2CCOCC2)cc1 | ?
O=C1NC(c2ccc(-c3ccccc3[N+](=O)[O-])o2)C(C(=O)c2ccc(Cl)cc2)C(O)(C(F)(F)F)N1 (centres undefined) | -20.1%
COc1cccc(CNC(=O)c2cc3ccc4cccnc4c3[nH]2)c1 | 4.7%
COc1ccc(/C=C2\SC(=S)N(CC(=O)N3CCN(C)CC3)C2=O)cc1 | 5.0%
Cc1ccc(NC(=O)CSc2nc3nccnc3c(=O)n2CCc2c[nH]c3ccccc23)cc1 | 12.0%
O=C(NC1(C(F)(F)F)NC(=O)N(C2CCCCC2)C1=O)C1CC1 (centres undefined) | 16.7%
CCCC1=Nc2cc(C(=O)NCCN3CCOCC3)ccc2Sc2ccc(C)cc21 | -12.5%
CC(C)CNC(=O)COC(=O)c1n[nH]c2ccccc12 | -8.1%

Bioassay records from PubChem BioAssay.

A portion of the library, so the mix of outcomes need not match the whole.
